D2 potentiator: positive allosteric modulators of human D2 dopamine receptor; AID 624464; P14416; potentiation, % (no concentration beside the values); 360,000 tested, 0.23% active; DiscoveRx D2 beta-arrestin cells, luminescence, 90 min; 100% = 57 uM dopamine signal; active = potentiation of 50% or more; inconclusive = 30% to 50%; inactive = 30% or less;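 also: compound concentration not given in the record; tested on top of an EC20 dose of dopamine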
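PathHunter beta-arrestin assay in DiscoveRx D2 cells. Compounds were added with an EC20 of dopamine (50 nM final) for 90 min at 37 deg C. Luminescence was read 1 h after detection reagent, with 57 uM dopamine as the EC100 control.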
TRPV1 PAM: enhances activation of the human vanilloid receptor TRPV1; 320,000 tested, 0.02% active; Q8NER1; TRPV1-expressing cells, Fluo-8 calcium influx, capsaicin EC20 potentiation; host cell line not named in the record; control for the full effect not named in the record; potentiation, % at 8.33 µM; active means potentiation above 80%; inconclusive means 30% to 80%; inactive means below 30%; also: 0% is about no effect
Target sequence (Q8NER1 whole entry, looked up): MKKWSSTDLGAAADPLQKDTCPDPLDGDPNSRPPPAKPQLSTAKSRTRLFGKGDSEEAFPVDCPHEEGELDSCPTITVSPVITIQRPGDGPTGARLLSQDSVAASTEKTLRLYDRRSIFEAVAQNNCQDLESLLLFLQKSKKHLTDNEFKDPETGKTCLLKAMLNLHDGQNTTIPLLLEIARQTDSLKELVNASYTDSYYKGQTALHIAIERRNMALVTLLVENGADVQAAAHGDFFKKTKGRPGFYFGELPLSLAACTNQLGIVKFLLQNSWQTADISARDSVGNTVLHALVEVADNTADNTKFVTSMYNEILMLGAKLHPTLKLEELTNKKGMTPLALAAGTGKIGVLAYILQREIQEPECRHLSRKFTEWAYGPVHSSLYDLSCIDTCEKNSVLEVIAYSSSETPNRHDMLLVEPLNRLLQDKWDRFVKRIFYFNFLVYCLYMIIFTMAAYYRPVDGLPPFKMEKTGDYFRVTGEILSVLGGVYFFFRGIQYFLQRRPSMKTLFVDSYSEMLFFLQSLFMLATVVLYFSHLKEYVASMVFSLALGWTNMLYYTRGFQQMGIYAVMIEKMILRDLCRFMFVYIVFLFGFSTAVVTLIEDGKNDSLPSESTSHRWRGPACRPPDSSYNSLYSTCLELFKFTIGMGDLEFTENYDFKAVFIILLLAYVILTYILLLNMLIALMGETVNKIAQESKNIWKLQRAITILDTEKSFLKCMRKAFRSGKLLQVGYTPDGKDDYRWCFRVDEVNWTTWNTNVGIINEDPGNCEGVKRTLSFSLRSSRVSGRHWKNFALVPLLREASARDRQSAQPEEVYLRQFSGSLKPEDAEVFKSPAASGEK
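TRPV1-expressing cells were cultured overnight at 35.5C and loaded with Fluo-8 calcium dye for 40 to 90 min at room temperature. After a 10 s baseline, compound was added and calcium influx was read kinetically for 3 min (ex 480/em 520 nm).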
TRPML1 agonist: human mucolipin-1 channel agonism | Q9GZU1 | TRPML1-expressing cells, Ca2+ dye fluorescence, FDSS; host cell line not named in the record; reference of the full effect not given here | activation, % (test concentration not listed) | 410,000 tested, 0.12% active; in the data active = activation above about 50%; inconclusive = about 30% to 50%; inactive = below about 30%; also: 0% is about no effect; the text of the record puts the active cut at 80%
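Agonist activity was taken from a 110 s kinetic Ca2+ dye read on the FDSS after pinning compounds onto TRPML1-DL cells. The cells were seeded at 1,500/well with Tet inducer, incubated about 16 h, then dye-loaded at room temperature.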
Six1-Eya2 blk: Six1/Eya2 interaction inhibition; 360,000 tested, 0.56% active; Q15475+O00167; AlphaScreen GST-Six1/His-Eya2 binding, biochemical; stronger effect = lower value; control for the full effect not named in the record; AID 651725; activity change, % (test concentration not listed); in the data active = activity change below about -65%; inconclusive = about -30% to -65%; inactive = above about -30%; also: % is scaled to controls: 0 for no effect and ±100 for the full control effect; compound concentration not given in the record
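Compounds are tested against tagged Six1 and Eya2 proteins bridged by glutathione donor and nickel acceptor beads; after a one-hour incubation at 37 °C without light, AlphaScreen emission is recorded.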
TRPML1 inh: human mucolipin-1 channel inhibition; Q9GZU1; 390,000 tested, 0.02% active; activity change, negative = inhibition, % (test concentration not listed); TRPML1-inducible cells, Ca2+ dye fluorescence, FDSS; stronger effect = lower value; inhibition of EC80 agonist-evoked calcium signal; in the data active means activity change below about -50%; inconclusive means about -30% to -50%; inactive means above about -30%;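 also: stimulus is agonist 54-4 at its EC80 concentration; % is scaled to controls: 0 for no effect and ±100 for the full control effect; compound concentration not given in the record; the text of the record puts the active cut at -80%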
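TRPML1-DL cells, Tet-induced overnight (~16 h, 37 °C) at 1,500 cells/well, were loaded with Ca8 no-wash dye plus quencher for 45-90 min at room temperature. Compounds were pinned during FDSS kinetic reading; agonist 54-4 at EC80 (4 uM final) then added.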
CtBP-E1A inh: CtBP/E1A binding inhibition | AlphaScreen GST-E1A/His-CtBP binding, 1536-well; stronger effect = lower value; control for the full effect not named in the record | activity change, % (no concentration beside the values) | 340,000 tested, 0.49% active; in the data active means activity change below about -65%; inconclusive means about -30% to -65%; inactive means above about -30%; also: % is scaled to controls: 0 for no effect and ±100 for the full control effect; compound concentration not given in the record
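In 5 uL wells, 23 nL compound meets equimolar GST-E1A and His-CtBP (5X stock 125 nM each) for 2 h, 37 °C. Beads (5X, 50 ug/mL) then 1 h, 37 °C, dark.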
The depositor's hits bear a star.

What do the screens show for `COc1ccc(N2CCN(CCNC(=O)c3ccc(NC(=O)C4CCCO4)cc3)CC2)cc1` (centres undefined)?
D2 potentiator: -18; TRPV1 PAM: -5; TRPML1 agonist: 0.2; Six1-Eya2 blk: 0; TRPML1 inh: -1; CtBP-E1A inh: -5

How did CCN(C(=O)COC(=O)/C=C/c1c(C)nn(-c2ccccc2)c1C)c1c(N)n(Cc2ccccc2)c(=O)[nH]c1=O do in these assays?
D2 potentiator: -2; TRPML1 agonist: 0.3; Six1-Eya2 blk: -3; TRPML1 inh: 7; CtBP-E1A inh: -9

How did O=C(CCC1CCCN(Cc2ccncc2)C1)NCc1ccc(F)c(F)c1 (centres undefined) do in these assays?
D2 potentiator: -17; TRPV1 PAM: -8; TRPML1 agonist: -0.5; Six1-Eya2 blk: 0; TRPML1 inh: 6; CtBP-E1A inh: 10

What do the screens show for `CCN1CCN(C(=O)CCCn2c(C)c3cnn(-c4ccccc4)c(=O)c3c2C)CC1`?
D2 potentiator: -8; TRPV1 PAM: 8; TRPML1 agonist: -0.5; Six1-Eya2 blk: 3; TRPML1 inh: -3; CtBP-E1A inh: -2

Results for CCOC(=O)N/N=C\c1ccc([N+](=O)[O-])o1 ?
D2 potentiator: 11; TRPV1 PAM: -2; TRPML1 agonist: 0.1; Six1-Eya2 blk: 0; TRPML1 inh: -5; CtBP-E1A inh: 10

How did Cc1cc(-c2cc(N)n(-c3ccccc3)n2)c(C)n1C1CCCC1 do in these assays?
D2 potentiator: -17; TRPV1 PAM: 21; TRPML1 agonist: -0.3; Six1-Eya2 blk: -6; TRPML1 inh: -18; CtBP-E1A inh: 1

How did COCc1cc(Sc2cccc(Cl)c2Cl)nc(-c2ccccc2)n1 do in these assays?
D2 potentiator: -3; TRPV1 PAM: 7; TRPML1 agonist: 1.4; Six1-Eya2 blk: 36; TRPML1 inh: 8; CtBP-E1A inh: 26

Results for Cc1noc(C)c1C(=O)N(CC(C)C)c1nc2ccccc2s1 ?
D2 potentiator: -20; TRPV1 PAM: -10; TRPML1 agonist: 0.6; Six1-Eya2 blk: 3; TRPML1 inh: 43; CtBP-E1A inh: 1

Results for C=CCOc1c(/C=N\NC(N)=O)cccc1OC ?
D2 potentiator: -5; TRPV1 PAM: -4; TRPML1 agonist: 0.3; Six1-Eya2 blk: -5; TRPML1 inh: 18

What do the screens show for `CN1CSC2=C(C#N)C(c3cccc(OCc4ccccc4)c3)CC(=O)N2C1` (centres undefined)?
D2 potentiator: -5; TRPML1 agonist: -0.3; Six1-Eya2 blk: -6; TRPML1 inh: 7; CtBP-E1A inh: -2

Results for CCN1C(=O)[C@H]2[C@H]3CN=C(SCC4CC4)N3[C@@](Cc3ccccc3)(C(=O)OC)[C@H]2C1=O ?
TRPML1 agonist: -0.3; Six1-Eya2 blk: 0; TRPML1 inh: 37; CtBP-E1A inh: -19

How did CC(C)(C)c1ccc(S(=O)(=O)n2c(CN3CCOCC3)nc3ccccc32)cc1 do in these assays?
D2 potentiator: -23; TRPV1 PAM: -1; TRPML1 agonist: 2.4; Six1-Eya2 blk: 0; TRPML1 inh: 21; CtBP-E1A inh: -10

How did COc1ccc(Cc2nnc(SCC(=O)Nc3c(C)cccc3C)[nH]c2=O)cc1 do in these assays?
D2 potentiator: 1; TRPV1 PAM: 11; TRPML1 agonist: -0.8; Six1-Eya2 blk: 0; TRPML1 inh: 7; CtBP-E1A inh: -26

What do the screens show for `CSc1ccc(CNC(=O)C2Cc3cc(S(=O)(=O)N4CCCCC4)ccc3N2C(C)=O)cc1` (centres undefined)?
D2 potentiator: -7; TRPV1 PAM: -11; TRPML1 agonist: 0.2; Six1-Eya2 blk: -8; TRPML1 inh: 11; CtBP-E1A inh: -14

What do the screens show for `COc1ccc(NC(=O)CC2C(=O)N(Cc3ccco3)C(=S)N2C(C)C)cc1` (centres undefined)?
D2 potentiator: -3; TRPV1 PAM: 2; TRPML1 agonist: -0.2; Six1-Eya2 blk: 13; TRPML1 inh: -15; CtBP-E1A inh: 0

Results for CCC(C)(C)NC(=S)Nc1ccc(-c2nc3ccc(C)cc3s2)cc1 ?
D2 potentiator: -12; TRPV1 PAM: -9; TRPML1 agonist: 0.2; Six1-Eya2 blk: -1; TRPML1 inh: 7; CtBP-E1A inh: 4

Results for Cc1cccc(OCCC(=O)OC(C)C(=O)Nc2ccc(Cl)cn2)c1 (centres undefined) ?
D2 potentiator: -2; TRPV1 PAM: -3; TRPML1 agonist: 0.5; Six1-Eya2 blk: 12; TRPML1 inh: 4; CtBP-E1A inh: 22

What do the screens show for `COc1ccccc1CCn1c(N)c(C#N)c2nc3ccccc3nc21`?
D2 potentiator: -15; TRPV1 PAM: -5; TRPML1 agonist: 0.3; Six1-Eya2 blk: -5; TRPML1 inh: 0; CtBP-E1A inh: -17

How did CCN(CC(=O)NCc1ccc(F)cc1)C(=O)C1CCN(C(=O)Nc2ccccc2)CC1 do in these assays?
D2 potentiator: 1; TRPV1 PAM: -13; TRPML1 agonist: -0.3; Six1-Eya2 blk: 2; TRPML1 inh: 2; CtBP-E1A inh: 9

Results for O=C(Cc1c(F)cccc1Cl)OCC(=O)N1CCN(c2ccccc2)CC1 ?
D2 potentiator: -16; TRPML1 agonist: -1.8; Six1-Eya2 blk: 2; TRPML1 inh: -6

Results for NC(=O)NC(=O)COC(=O)c1ccc2noc(-c3ccccc3)c2c1 ?
D2 potentiator: 8; TRPV1 PAM: 1; TRPML1 agonist: 1.5; Six1-Eya2 blk: -10; TRPML1 inh: 5; CtBP-E1A inh: -1

How did O=C(CN1CCC(C(=O)c2ccc(F)cc2)CC1)Nc1ccccc1 do in these assays?
D2 potentiator: -15; TRPV1 PAM: -12; TRPML1 agonist: 0.4; Six1-Eya2 blk: 2; TRPML1 inh: 15; CtBP-E1A inh: -1

What do the screens show for `O=S(=O)(NC1=NCCCCC1)c1ccc(Cl)cc1`?
D2 potentiator: -4; TRPV1 PAM: -4; TRPML1 agonist: -0.1; Six1-Eya2 blk: -14; TRPML1 inh: 9; CtBP-E1A inh: 9

Results for CC(C)N(Cc1nc(-c2ccccc2)no1)C(=O)C(C)(C)C ?
D2 potentiator: -17; TRPV1 PAM: 6; TRPML1 agonist: 0.9; Six1-Eya2 blk: 7; TRPML1 inh: 18; CtBP-E1A inh: 1

Results for CCCCN(C(=O)C1COc2ccccc2O1)c1c(N)n(CCC)c(=O)[nH]c1=O (centres undefined) ?
D2 potentiator: -6; TRPML1 agonist: -0.1; Six1-Eya2 blk: 5; TRPML1 inh: 4; CtBP-E1A inh: 4

What do the screens show for `CNC(=O)OCN1C(=O)C2CC=CCC2C1=O` (centres undefined)?
D2 potentiator: -6; TRPML1 agonist: -0.4; Six1-Eya2 blk: -6; TRPML1 inh: 12; CtBP-E1A inh: 2

What do the screens show for `CCCOC(=O)c1cccc(NC(=O)c2cccnc2)c1`?
D2 potentiator: -7; TRPV1 PAM: -12; TRPML1 agonist: 1.1; Six1-Eya2 blk: -2; TRPML1 inh: 2; CtBP-E1A inh: -9

Results for O=C1c2ccccc2C(=O)N1CSc1nnc(Nc2ccccc2F)s1 ?
D2 potentiator: -6; TRPV1 PAM: 2; TRPML1 agonist: -0.5; Six1-Eya2 blk: -1; TRPML1 inh: 8; CtBP-E1A inh: -1

How did COc1ccc2cc(/C(C)=N/NC(=O)c3cc(C)oc3C)ccc2c1 do in these assays?
D2 potentiator: -7; TRPML1 agonist: -0.9; Six1-Eya2 blk: 3; TRPML1 inh: -4; CtBP-E1A inh: 0

Results for Cc1ccccc1-n1c(-c2csc(C)c2C)n[nH]c1=S ?
D2 potentiator: -17; TRPV1 PAM: 12; TRPML1 agonist: 3.1; Six1-Eya2 blk: -1; TRPML1 inh: -3; CtBP-E1A inh: 15

Results for COc1cc2c(cc1OC)C(Cc1ccc(O)cc1)NCC2 (centres undefined) ?
D2 potentiator: -16; TRPV1 PAM: 1; TRPML1 agonist: -0.3; Six1-Eya2 blk: -2; TRPML1 inh: -15; CtBP-E1A inh: 3

Results for CC12CC3(C)CC(C)(C1)CC(C(N)=O)(C2)C3 ?
D2 potentiator: -1; TRPV1 PAM: -16; TRPML1 agonist: 3.6; Six1-Eya2 blk: 1; TRPML1 inh: 3; CtBP-E1A inh: 2

Results for CN(C)S(=O)(=O)N1CCc2ccc(NC(=O)c3ccccc3Cl)cc2C1 ?
D2 potentiator: -4; TRPV1 PAM: 11; TRPML1 agonist: -0.3; Six1-Eya2 blk: 6; TRPML1 inh: 5; CtBP-E1A inh: -5

Results for Cc1cccc(NC(=O)/C(=C\c2cccs2)NC(=O)c2ccccc2)c1 ?
D2 potentiator: -28; TRPV1 PAM: 12; TRPML1 agonist: 0.2; Six1-Eya2 blk: 5; TRPML1 inh: 24; CtBP-E1A inh: 11

What do the screens show for `CCCNC(=O)C1(C)CCN(CCS(=O)(=O)c2ccc(C)cc2)C1` (centres undefined)?
D2 potentiator: -5; TRPML1 agonist: 0.9; Six1-Eya2 blk: 10; CtBP-E1A inh: -4

How did Cc1cc(NC(=O)CSc2ccc3c(c2)OCCO3)no1 do in these assays?
D2 potentiator: -3; TRPV1 PAM: -8; TRPML1 agonist: 0.1; Six1-Eya2 blk: -8; TRPML1 inh: 6; CtBP-E1A inh: -1

What do the screens show for `COc1ccc(CCNC(=O)c2cc(S(=O)(=O)N(C)C)ccc2N2CCCC2)cc1`?
D2 potentiator: -1; TRPV1 PAM: -5; TRPML1 agonist: 14; Six1-Eya2 blk: -4; TRPML1 inh: 2; CtBP-E1A inh: -5

Results for COc1ccc(C(=O)NNC(=O)CSc2nnc(C(C)C)n2C)cc1 ?
D2 potentiator: -3; TRPV1 PAM: 20; TRPML1 agonist: -0.6; Six1-Eya2 blk: -9; TRPML1 inh: -6; CtBP-E1A inh: 5

How did COc1ccc(S(=O)(=O)N(C)C[C@H]2Oc3c(NC(=O)NC(C)C)cccc3C(=O)N([C@H](C)CO)C[C@@H]2C)cc1 do in these assays?
TRPML1 agonist: 0.0; Six1-Eya2 blk: 23; TRPML1 inh: 1; CtBP-E1A inh: 0

What do the screens show for `COc1cccc(-c2nnn(CC(=O)N(CC(C)C)C3CCS(=O)(=O)C3)n2)c1` (centres undefined)?
D2 potentiator: -17; TRPV1 PAM: -6; TRPML1 agonist: -0.2; Six1-Eya2 blk: 7; TRPML1 inh: 1; CtBP-E1A inh: 10

Arranged by molecular weight (smallest number first): some entries from above.
Results for CC12CC3(C)CC(C)(C1)CC(C(N)=O)(C2)C3 ?
D2 potentiator: -1; TRPV1 PAM: -16; TRPML1 agonist: 3.6; Six1-Eya2 blk: 1; TRPML1 inh: 3; CtBP-E1A inh: 2

Results for CN(C)S(=O)(=O)N1CCc2ccc(NC(=O)c3ccccc3Cl)cc2C1 ?
D2 potentiator: -4; TRPV1 PAM: 11; TRPML1 agonist: -0.3; Six1-Eya2 blk: 6; TRPML1 inh: 5; CtBP-E1A inh: -5

What do the screens show for `COc1ccc(CCNC(=O)c2cc(S(=O)(=O)N(C)C)ccc2N2CCCC2)cc1`?
D2 potentiator: -1; TRPV1 PAM: -5; TRPML1 agonist: 14; Six1-Eya2 blk: -4; TRPML1 inh: 2; CtBP-E1A inh: -5

Compound activity (PubChem BioAssay)
